Mtb hypoxia rep – inhibitors of hypoxia-regulated fluorescent reporter in Mycobacterium tuberculosis; M. tuberculosis hypoxia-regulated fluorescent reporter, fluorescence; fluorescence inhibition, % (concentration not given with the values); actives 0.1% (n = 300,000); AID 1159583;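 active means 35 to 45% if threefold the growth effect, above 45% if 1.5-fold the growth effect; inactive means the rest, general growth blockers included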;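 further: wells of about 50 µL received 100 nL stock; 0% = vehicle wells and 100% = reference inhibitor wells; whole bacteria with a GFP reporter of the hypoxia response; strong numbers were not always called active; many hits fall short of the cut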
Sa RN4220 lethal – S. aureus RN4220 growth inhibition | actives 0.33% (n = 330,000) | inhibition, % (concentration not given with the values) | OD600, 16 h | AID 1259311;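 active means z-score of -3 or lower and OD600 up to 0.18 on both plates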;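 further: plate controls were untreated cells for no effect and reference antibiotic for full effect; stock transfer was 100 nL into about 80 µL; one replicate is shown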
PrP UTR inh – suppresses PrP 5' UTR mRNA reporter expression. AID 488862. inhibition, % (no concentration beside the values). actives 0.35% (n = 340,000). cell-based PrP 5' UTR mRNA reporter, plate reader;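 active means every replicate at 50% or more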;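 further: 0 = median of the neutral control wells; tested in H4 reporter cells; numbers are from one replicate; inactives centre near -14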
Sa ugtP lethal – compounds lethal to S. aureus RN4220 ugtP deletion mutant. AID 1259309. OD600 growth, 16 h; some inactives read as strong as hits. growth inhibition, % (test concentration not listed). actives 0.54% (n = 330,000);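 active means z-score under -3 and OD600 up to 0.15 on both plates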;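 further: plate controls were untreated wells for no effect and antibiotic for full effect; wells of about 80 µL received 100 nL stock; the first replicate is given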
BJeLR viability – kills HRASV12-expressing BJeLR cells. AID 1554. actives 0.17% (n = 300,000). BJeLR (HRASV12) viability, CellTiter-Glo ATP luminescence, 48 h; reference of the scale not given here. inhibition, % (no concentration beside the values);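 active means replicate mean above 50%; inconclusive means above 50% but judged a plate artefact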;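 further: 50 nL library stock added to about 25 µL; numbers are from one replicate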
Bead autofluor – flagged as autofluorescent in microsphere protease counterscreen; AID 624483; fluorescence intensity (concentration not given with the values); compound autofluorescence counterscreen, microsphere flow cytometry; stronger effect = higher value; actives 3.1% (n = 360,000);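 active means at least 3 SD above the mean of all compounds, about 16000 in these data; inconclusive means too few beads counted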;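 further: 100 nL of 1 mM stock went into each well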
Mtb hypoxia rep growth – also measured in Mtb hypoxia rep; calls as there; growth inhibition, %; measured here: M. tuberculosis growth (absorbance);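 0% = vehicle and 100% = reference antibiotic; read after six days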
* = called active by the depositor; ? = inconclusive; nt = no result given.

Molecule	Mtb hypoxia rep	Mtb hypoxia rep growth	Sa RN4220 lethal	PrP UTR inh	Sa ugtP lethal	BJeLR viability	Bead autofluor
C=CCSc1nnc(NC(=O)CSc2nc3ccccc3[nH]2)s1	-13	3	0.9	-18	10	-8	11170
O=C(c1ccc(Cl)c(S(=O)(=O)N2CCOCC2)c1)N1CCN(c2ccccc2)CC1	12	-1	-1.1	-12	4	-1	6027
COc1ccc(/C(C)=N/NC(=O)CCC(=O)Nc2ccc(Cl)cc2Cl)c(OC)c1	nt	nt	nt	-31	nt	-15	2229
COCCn1cnc2c1c(=O)n(CC(=O)OCC#N)c(=O)n2Cc1ccccc1	8	6	5.0	-18	-2	-2	4467
O=C(/C=C/c1ccco1)NCCCN1CCN(CCCNC(=O)/C=C/c2ccco2)CC1	3	7	-0.1	-8	0	-6	2082
C=CCNC(=O)COC(=O)c1cc(S(=O)(=O)N2CCCCC2)ccc1Cl	4	-5	2.4	-16	7	-2	2912
Cc1cc(=O)[nH]c2ccc(S(=O)(=O)N3CCOCC3)cc12	3	0	5.0	-6	6	-1	5481
CCOc1ccc(NS(=O)(=O)c2ccc(NC(=O)c3ccccn3)cc2)cc1	11	0	1.6	-13	8	nt	nt
CN1CCN(c2ccc([N+](=O)[O-])c(Sc3nc4ccccc4[nH]3)c2)CC1	-7	-5	-4.3	-7	-2	-7	16481*
[O-]/C(=C(\C(=S)Nc1cccc2ccccc12)[n+]1cccc(CO)c1)c1ccc(Cl)s1	-2	-9	-3.3	-53	-8	nt	4669
CCCC1(c2ccccc2)NC(=O)N(CCN2C(=O)c3ccccc3C2=O)C1=O (stereo not given)	10	4	-11	-4	-1	1	3300
CCOc1cccc(/C=N/NC(=O)CC2C(=O)NN=C2C)c1O (stereo not given)	nt	nt	nt	-21	nt	1	2155
Cc1ccc(-c2nc(C#N)c(NCCc3ccccn3)o2)cc1	22	11	-9.8	-28	-1	10	2525
c1ccc(CCc2nn3c(C4COc5ccccc5O4)nnc3s2)cc1 (stereo not given)	4	3	4.4	-33	16	9	7390
CN1CCc2c(n(CC(O)CN(CCO)CCO)c3ccccc23)C1=O (stereo not given)	-2	-1	7.5	-20	-2	-4	2543
CC(=O)N(c1ccc(C)cc1)S(=O)(=O)c1ccc(Cl)cc1	9	12	0.4	-25	-2	-6	4382
COc1ccccc1OCC#CCn1ccnc1	-13	4	0.6	-16	-13	-1	4389
CCCCCCn1c(O)c(C=NCCN2CCCCC2)c(=O)[nH]c1=O	2	-2	-17	-12	-6	-5	3432
S=C1NCN(C2CCCCC2)CN1c1ccccc1	0	8	-0.4	-15	-8	4	4344
CCOc1cc(C(c2c(C)[nH][nH]c2=O)c2c(C)[nH][nH]c2=O)cc(Cl)c1O	12	5	0.3	-11	-1	-2	2996
Brc1ccc(C2=CC(c3cccs3)n3ncnc3N2)cc1 (stereo not given)	-10	-4	4.6	-25	-12	-12	8878
O=C1NC(=O)N(CCc2ccc(F)cc2)C(=O)/C1=C/C=C/c1ccccc1	2	1	57	nt	35	37	?
COc1ccc(CN2C(=O)COc3ccccc32)cc1	1	7	4.1	-8	1	5	4070
CN1CCCCCC1C(=O)N1CCC(N2CCC(C(=O)N3CCOCC3)CC2)CC1 (stereo not given)	3	-1	4.5	-9	0	-12	4471
Cn1c(SCC(=O)N2CCCc3ccccc32)nnc1-c1ccco1	-6	-1	18	-6	15	7	3295
CC(C)n1c(NCc2nc3ccccc3n2C)nc2ccccc21	-4	-9	-2.8	-26	0	9	5569
NS(=O)(=O)c1ccc(CCNC(=O)CNC(=O)C2CCCCC2)cc1	nt	nt	0.2	-15	0	-1	4872
COC(=O)c1ccc(C(=O)N2CCCC(N3CCN(c4ccccc4)CC3)C2)nc1 (stereo not given)	-2	14	0.3	-8	-2	2	5329
CCCC(C)NC(=O)CN(Cc1ccco1)S(=O)(=O)c1ccccc1 (stereo not given)	0	-6	0.9	-5	0	nt	nt
COCCCn1c(SCc2nnc(-c3ccc(OC)c(OC)c3)o2)nnc1-c1ccncc1	nt	nt	4.6	-40	4	1	2806

Continued, starting with the last 3 of the part before.
Molecule	Mtb hypoxia rep	Mtb hypoxia rep growth	Sa RN4220 lethal	PrP UTR inh	Sa ugtP lethal	BJeLR viability	Bead autofluor
COC(=O)c1ccc(C(=O)N2CCCC(N3CCN(c4ccccc4)CC3)C2)nc1 (stereo not given)	-2	14	0.3	-8	-2	2	5329
CCCC(C)NC(=O)CN(Cc1ccco1)S(=O)(=O)c1ccccc1 (stereo not given)	0	-6	0.9	-5	0	nt	nt
COCCCn1c(SCc2nnc(-c3ccc(OC)c(OC)c3)o2)nnc1-c1ccncc1	nt	nt	4.6	-40	4	1	2806
COc1ccc([C@@H]2[C@@H](C(=O)C(C)(C)C)N3N=Cc4ccccc4[C@@H]3C23C(=O)OC(C)(C)OC3=O)cc1OC	18	9	4.3	-15	20	-2	2654
CC(NC(=O)Nc1ccccc1C(F)(F)F)C1CCCO1 (stereo not given)	-1	-2	1.5	-26	-4	-12	11052
O=C(C=Cc1cccs1)c1ccc(Cl)s1	nt	nt	13	-26	14	nt	4402
Cc1nc2c3ccccc3nc(NNC(=O)CCC(=O)NCCC(C)C)n2n1	-4	0	-5.2	-13	-1	-25	2479
CN1CCN(NC(=O)c2cn(-c3ccccc3)nc2-c2cccs2)CC1	-4	-1	5.9	-6	5	-2	2744
COC(=O)c1ccccc1OCC(=O)N1CCN(c2ccc(OC)cc2)CC1	17	8	3.2	-18	4	-1	3694
COC(=O)c1nnn(-c2nonc2N)c1COc1ccc(C=O)cc1OC	-4	4	1.4	-9	3	4	4190
COc1ccc(Br)cc1C1C2C=CCC(C)C2C(=O)N1Cc1ccccc1 (stereo not given)	-4	-1	-8.4	nt	16	nt	nt
N#CCCn1cc(C=NNC(N)=S)c(-c2ccc(-c3ccccc3)cc2)n1	-6	5	17	nt	8	nt	nt
CC(C)(C)c1ccc(NC(=O)COC(=O)CCc2nc3ccccc3c(=O)[nH]2)cc1	4	4	1.9	-24	2	-3	2315
COc1cc(C=NNC(=O)c2ccc(CN3c4cccc5cccc(c45)S3(=O)=O)cc2)cc(OC)c1O	-6	4	4.3	nt	-1	nt	nt
CC(NS(=O)(=O)C=Cc1ccccc1)c1ccccc1 (stereo not given)	12	5	9.2	nt	-2	nt	nt
C(=N\N1CCN(C2c3ccccc3-c3ccccc32)CC1)/c1cccnc1	nt	nt	nt	-7	nt	8	4153
CC(=O)NC1(C(F)(F)F)C(=O)Nc2c1c(=O)[nH]c(=O)n2CCc1ccccc1 (stereo not given)	-2	-4	2.2	-16	5	-2	4347
O=C(CN1C(=O)/C(=C/c2ccccc2)SC1=S)N1CCN(CCc2ccccn2)CC1	25	20	6.0	-7	4	1	5216
Nc1cc(C(F)(F)F)ccc1OCC1CCCO1 (stereo not given)	-3	3	-1.0	-35	7	2	3493
O=C(Nc1c2c(nn1-c1ccc([N+](=O)[O-])cc1)CS(=O)(=O)C2)c1ccco1	5	0	2.2	-19	3	-4	5230
Cc1ccnc2nc(C(=O)OCC(=O)N3CCc4ccccc43)nn12	14	0	5.4	-5	5	3	3967
Cc1cccn2c(=O)c3cc(C(=O)N4COCC4(C)C)sc3nc12	20	0	6.8	-29	8	5	3969
Cc1ccc(NC(=O)N2CCCC2C(=O)NCC2CCCO2)cc1 (stereo not given)	2	9	0.6	-8	-1	-9	4193
CCCCn1c(SCC(=O)NCc2ccco2)nc2c1c(=O)n(C)c(=O)n2C	11	1	-4.2	-19	3	2	2210
COc1ccc(CC(C)CC(=O)NCCc2ccc(OC)c(OC)c2)cc1 (stereo not given)	6	6	3.8	-28	6	15	3689
Cc1ccc(C(=O)NN2C(=O)C3C4c5ccccc5C(c5ccccc54)C3C2=O)cc1 (stereo not given)	-5	4	4.1	-3	-3	3	2512
CON(C)c1nc(OCC#N)nc(N(C)C)n1	-5	4	4.1	-7	2	-9	2224
COc1ccc(C(=O)NN=Cc2c(C)nn(-c3ccccc3)c2OC)cc1	12	5	3.3	nt	3	nt	nt
CN1C(=O)/C(=C/c2ccccc2OCc2ccccc2F)NC1=S	nt	nt	nt	-3	nt	-4	2709
COc1ccc(C)cc1N(C(=O)c1ccco1)C(C(=O)NC1CCCC1)c1cc(OC)c(OC)c(OC)c1 (stereo not given)	14	-2	3.7	-26	2	-3	3421
CC(C)N1C(=O)CN(C2CCCCCC2)C(=O)C1c1ccccc1F (stereo not given)	2	6	9.8	-16	10	-2	10406
COc1cc(NC(=O)C2CCCN2S(=O)(=O)c2ccc3c(c2)CC(C)N3C(C)=O)cc(OC)c1 (stereo not given)	-7	-1	0.7	0	1	-3	5727
O=c1c2ccccc2ncn1C1CCCCC1	4	4	1.7	-2	-2	6	7976
CC(C)(C)CC(C)(C)n1nnnc1N	2	-4	4.3	-35	3	nt	4312
CCN1CCN(C(=O)CCN2C(=O)c3ccccc3S2(=O)=O)CC1	0	0	5.4	-19	6	3	?
O=C(O)C1=C[C@H](C2CC2)C[C@H](OCc2ccc(CO)cc2)O1	nt	nt	nt	-6	nt	-8	3065
O=C(O)CCCn1cc(NC(=O)COc2cccc(Cl)c2)cn1	1	-1	-2.5	8	1	8	5119
COc1ccc(NC(=O)CCNC(=O)c2ccc([N+](=O)[O-])cc2)cc1S(=O)(=O)N1CCOCC1	11	-3	2.1	2	7	nt	4724
COc1cc(C(=O)NCc2nnc(SCC(=O)NCCc3ccccc3)o2)cc(OC)c1OC	3	0	-0.1	6	2	0	5656
O=C(CSCc1cc(=O)n2ccsc2n1)Nc1ccccc1	5	3	0.5	-27	7	4	5414
CC(C)COC(=O)NC1c2ccccc2Oc2ccccc21	16	9	4.6	-12	6	4	4050
COc1ccc(C(CNC(=O)c2ccc(S(=O)(=O)N(C)C)cc2)N(C)C)cc1 (stereo not given)	-5	-5	6.6	-36	3	1	5039
COc1ccc(NC(=O)/C(C#N)=C\c2ccc(OCc3ccc(C(=O)O)cc3)c(OC)c2)cc1	-9	9	1.4	-42	-3	-23	2233
OC(Cn1c2ccccc2c2ccccc21)C[n+]1ccccc1 (stereo not given)	7	3	0.3	-22	1	-1	9837
CC1(C)Cc2c(sc(NC(=O)c3ccco3)c2C#N)C(C)(C)N1	5	7	5.7	nt	10	4	nt
COc1ccc(OC)c(C(Nc2ccccc2)P(=O)(OC(C)C)OC(C)C)c1 (stereo not given)	1	10	-1.8	nt	-5	6	nt
CCOC(=O)C1CCN(Cc2c(F)cccc2Cl)CC1	5	1	-0.2	-6	5	11	25112*
CCOc1ccc(CCNC(=O)c2oc3c(c2C)-c2[nH]ncc2CC3)cc1OCC	12	18	-10	-38	-3	-6	5819
COCCn1c(=O)[nH]c2cc(C(=O)Nc3cc(C)cc(C)c3)ccc2c1=O	-4	-5	-3.8	-12	9	4	3521
O=C(NN=Cc1ccccc1O)C1SCCCS1	17	9	11	nt	12	nt	nt
CC1=C(C#N)C(c2cn(-c3ccccc3)nc2-c2cccs2)C(C#N)=C(C)N1	-4	-2	-6.9	-55	18	-5	7422
COCCCNC(=O)CCc1ccc(S(=O)(=O)Nc2ccc(C)cc2)cc1	2	-1	5.3	-16	7	4	7815
CCOC(=O)c1sc(-c2ccc(C(F)(F)F)cc2)nc1O	4	6	19	-69	-6	12	5129
CCOC(=O)c1nn(-c2ccc(Cl)cc2)c(=O)c(C#N)c1C	-8	3	6.7	-7	13	-11	3250
CCC1(CC)CNC(=O)NC1	6	8	3.3	-29	3	nt	3698
Cc1ccc(Oc2ccc(C=O)cn2)cc1	8	0	1.5	-10	5	-6	6436
CC(C)(C)C1CCc2c(sc(NC(=O)c3ccncc3)c2C(N)=O)C1 (stereo not given)	12	-10	-0.1	-37	75	5	9332

Bioassay records from PubChem BioAssay.
